Screening results: PubChem BioAssay, National Center for Advancing Translational Sciences (NCATS)
CRE-bla Fsk – Cell signaling CRE-BLA (Fsk stim) | CHO CRE-bla reporter (cAMP response element driving beta-lactamase), forskolin EC10, beta-lactamase ratio | Potency, µM (highest dose often 38.2 µM), for the others: top-dose activity change, negative = inhibition, most hits filed as activators | 71,000 tested, 2.5% active | AID 662, 2007; active means well fitted activation curve with a large enough effect in the signal ratio, with a control signal flat, not every such curve was filed as active; inconclusive means small, poorly fitted or top-dose-only effect, or effect the other way, or a change in a side signal; the % refers to the signal ratio; further: potency means the concentration at half of the fitted maximal effect; % of control where 0% means no effect
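Reporter-gene assay: CHO cells with beta-lactamase behind cAMP responsive elements, co-treated with compound and EC10 NKH 477 for 3 hours at 37 degrees Celsius. Activity came from the 460/530 nm CCF4 emission ratio.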
HBB splicing – qHTS Assay for Modulators of Hemoglobin Beta Chain Splicing. Potency, µM (highest dose often 46.1 µM), inactives show at the highest dose activation, most hits filed as activators. 65,000 tested, 0.06% active. AID 925, 2007. HBB splicing reporter cell assay, activation; EGFP reporter with mutant IVS2-654 intron; response scale: normalised to 500 nM splice-correcting PNA; further: potency means the concentration at half of the fitted maximal effect; 0% is about no effect
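HeLa cells stably expressing EGFP interrupted by mutant beta-globin intron 2 (IVS2-654), 500/well in 2% FCS. Treated with compound for 2 days at 37C. Splicing correction scored as total well GFP intensity (488 nm excitation, 500-520 nm emission); 500 nM antisense PNA served as control.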
Texas Red fluor – qHTS Assay for Spectroscopic Profiling in Texas Red Spectral Region; Compound fluorescence, Texas Red channel, 547/618 nm; stronger effect = higher value; 59,000 tested, 0.06% active; max dye-equivalent concentration, M; in the data active means max dye-equivalent concentration above about 10 nM; inconclusive means between about 1.1 nM and that limit
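Fluorescence at ex 547/em 618 nm, normalized against an on-plate Texas Red standard series to give dye-equivalent concentration per compound concentration. Buffer 100 mM Tris, pH 8.0; 15 min RT incubation before CCD imaging.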
15-hLO inh – qHTS Assay for Inhibitors of 15-hLO (15-human lipoxygenase). 74,000 tested, 1.4% active. Polyunsaturated fatty acid lipoxygenase ALOX15 (Homo sapiens), P16050. purified 15hLO-1, xylenol orange hydroperoxide absorbance. AID 887, 2007. Potency, µM (series often up to 57.1 µM), for the others: at the top dose activity change, negative = inhibition, hits mostly inhibitors; further: potency means the concentration at half of the fitted maximal effect; on the % scale 0 is the no-effect control and ±100 the full control effect; nearly all actives have a fitted effect of over 55% in size
Target sequence (P16050 whole entry, looked up): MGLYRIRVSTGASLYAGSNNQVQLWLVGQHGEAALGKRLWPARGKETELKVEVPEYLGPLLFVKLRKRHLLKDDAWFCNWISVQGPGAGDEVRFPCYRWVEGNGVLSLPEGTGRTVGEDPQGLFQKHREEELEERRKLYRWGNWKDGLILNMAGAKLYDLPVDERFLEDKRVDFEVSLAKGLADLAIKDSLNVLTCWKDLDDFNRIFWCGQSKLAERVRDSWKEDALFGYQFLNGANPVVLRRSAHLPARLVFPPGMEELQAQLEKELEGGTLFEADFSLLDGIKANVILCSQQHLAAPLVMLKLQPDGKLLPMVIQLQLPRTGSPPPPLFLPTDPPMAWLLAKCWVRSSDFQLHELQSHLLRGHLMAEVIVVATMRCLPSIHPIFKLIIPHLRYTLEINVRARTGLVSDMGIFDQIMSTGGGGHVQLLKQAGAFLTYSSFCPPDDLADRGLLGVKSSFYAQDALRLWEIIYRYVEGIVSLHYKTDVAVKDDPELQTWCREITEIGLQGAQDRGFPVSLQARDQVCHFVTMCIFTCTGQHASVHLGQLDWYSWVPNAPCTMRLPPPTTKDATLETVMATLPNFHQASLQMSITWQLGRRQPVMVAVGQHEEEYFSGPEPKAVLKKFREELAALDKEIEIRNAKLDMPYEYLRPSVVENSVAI
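Purified human 15hLO-1 (40 nM final) in 25 mM Hepes pH 7.5, 0.01% Triton X-100 was preincubated with compound 15 min at room temperature, then reacted 6 min with 50 uM arachidonic acid; hydroperoxide detected by Fe-XO, 573/405 nm absorbance ratio.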
Hsp90 Hop PPI – qHTS Assay for Disrupters of an Hsp90 Co-Chaperone Interaction; 71,000 tested, 0.44% active; AID 595, 2007; AlphaScreen TPR2A-His6 binding biotin-Hsp90 C-terminal peptide; Potency, µM (titrated, usually from 57 µM), inactives show top-dose activity change, negative = inhibition; Hsp90 C-terminal peptide / TPR2A (Hop) interaction, human; active means well fitted curve in either direction with a large enough effect; inconclusive means small, poorly fitted or top-dose-only effect, or another doubt; further: potency means the concentration at half of the fitted maximal effect; on the % scale 0 is the no-effect control and ±100 the full control effect; many of its hits are not listed in these tables
Luciferase inh – qHTS Assay for Inhibitors of Firefly Luciferase; 72,000 tested, 2.2% active; purified firefly luciferase, luminescence, 8 min; Potency, µM (doses to about 57.1 µM), inactives show at the top dose activity change, negative = inhibition, usual class: inhibitors; AID 411, 2009; Luciferin 4-monooxygenase (Photinus pyralis), P08659; further: potency means the concentration at half of the fitted maximal effect; on the % scale 0 is the no-effect control and ±100 the full control effect; nearly all actives have a fitted effect of over 40% in size
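qHTS concentration-response profiling: light output of P. pyralis luciferase with luciferin and 10 uM ATP, imidazole buffer pH 7.2. Read by luminescence after 8-min room-temperature incubation.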
Rhodamine fluor – qHTS Assay for Spectroscopic Profiling in Rhodamine Spectral Region. 59,000 tested, 0.05% active. max dye-equivalent concentration, M. Rhodamine-region fluorescence, 547/598 nm, Tris buffer; stronger effect = higher value; in the data active means max dye-equivalent concentration above about 11 nM; inconclusive means between about 1.1 nM and that limit
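Intrinsic compound fluorescence, ex 547 / em 598 nm, CCD imager. Tris 100 mM pH 8.0; 15 min RT. Output = rhodamine dye-equivalent concentration at each compound concentration.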
Pol III holo inh – qHTS Assay for Inhibitors of DNA Polymerase III Holoenzyme System; 71,000 tested, 0.25% active; AID 603, 2007; reconstituted DNA polymerase III holoenzyme replication, biochemical; Potency, µM (titrated, usually from 57.1 µM), for inactives: top-dose activity change, negative = inhibition; further: potency means the concentration at half of the fitted maximal effect; on the % scale 0 is the no-effect control and ±100 the full control effect
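Reconstituted *E. coli* holoenzyme (0.35 nM Pol III, 1 nM beta, 154 nM SSB, 2 nM primase) was preincubated with compound for 15 min at RT. Synthesis on 1.4 nM ssM13Gori ran 35 min, then was stopped with PicoGreen/EDTA and read as dsDNA fluorescence.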
ERK AVP inh – qHTS Assay for Inhibitors of the ERK Signaling Pathway using a Homogeneous Screening Assay | HEK293-V1b, vasopressin-stimulated pERK AlphaScreen | Potency, µM (highest dose often 57.5 µM), for the others: at the top dose activity, negative = inhibition, usual class: inhibitors | 72,000 tested, 0.99% active | AID 995, 2007; further: potency means the concentration at half of the fitted maximal effect; on the % scale 0 is the no-effect control and ±100 the full control effect; nearly all actives have a fitted effect of over 55% in size
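HEK293 cells stably expressing V1b receptor, preincubated 30 min at 37 °C with compound, then stimulated 5 min with 25 nM vasopressin. Phospho-ERK by AlphaScreen SureFire after 5 h RT; normalized to DMSO and vasopressin; AC50 by Hill fit.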
Tau fil binding – qHTS Assay for Tau Filament Binding | Potency, µM (series often up to 57.1 µM), without a hit: at the top dose activity change, negative = inhibition | 71,000 tested, 2% active | recombinant tau filaments, thioflavin S fluorescence, 15 h; filaments grown with octadecylsulfate alongside compound | Microtubule-associated protein tau (Homo sapiens), P10636 | AID 596, 2007;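 further: potency means the concentration at half of the fitted maximal effect; on the % scale 0 is the no-effect control and ±100 the full control effect; actives lower thioflavin S fluorescence by blocking filaments or displacing dye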
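Quantitative HTS: thioflavine S signal from ODS-induced tau filaments, excited at 450 nm, emission 510 nm. Conditions: 1 uM tau, 30 uM ODS, 15 h at 37 C, pH 7.4.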
* hit, by the source's call; i = inactive; ? = inconclusive; . = not tested or not shown; [ ] = remark or other dose. Unless noted, the call rests on the fitted dose curve; in most records, active means well fitted curve in the direction sought with a large enough effect; inconclusive means small, poorly fitted or top-dose-only effect, or another doubt; inactive means no such curve, though single readings can be large; an effect the other way counts as inactive or inconclusive.

Compound	CRE-bla Fsk	HBB splicing	Texas Red fluor	15-hLO inh	Hsp90 Hop PPI	Luciferase inh	Rhodamine fluor	Pol III holo inh	ERK AVP inh	Tau fil binding
CCC/C=C(\CCC)C(NS(=O)(=O)CC12CCC(CC1=O)C2(C)C)c1ccc(C(=O)OC)cc1 (stereo unspecified)	?	1.8%	.	.	5.2%	.	.	-8.1%	24.9%	-18.4%
Cn1c(=O)[nH]c(=O)c2c1nc(N1CCCCC1)n2CCCSc1nc2ccccc2s1	2.51µM*	-1.9%[57.5 µM]	i	-17.4%	?	-0.4%	i	8.2%	?	64.0%
O=C(NCc1ccccc1)c1ccc(COCC(F)(F)F)o1	-13.6%	0.2%	i	3.9%	-1.7%	-0.3%	i	-8.5%	-20.6%	1.6%
COc1cc(/C=N/n2cnnc2)ccc1OCCOc1ccccc1	3.3%[7.6 µM]	-2.2%[0.0738 µM]	.	-28.9%[11.4 µM]	-6.4%[11 µM]	3.2%	.	-9.6%[11.4 µM]	-27.8%	40.5%[11.4 µM]
Cc1n[nH]c(=O)nc1NCc1ccc(Cl)cc1	0.1%	0.1%[0.369 µM]	?	-10.0%	-1.4%	0.9%	i	-12.3%	-3.0%	-7.4%
CCOc1ccccc1-c1nc(C(N)=O)c2[nH]c(=O)n(-c3ccccc3)c2n1	?	-0.1%	i	8.7%	-4.2%	-1.1%	i	-0.8%	-23.8%	53.3%
S=c1[nH]nc(CSc2nc3ccccc3s2)o1	?	0.5%[9.22 µM]	.	-20.2%	1.8%	0.4%	.	1.3%	-6.1%	-2.9%
Cn1c(=O)[nH]c(=O)c2c1nc(SCCN1CCCCC1)n2CCCc1ccccc1	9.7%	.	i	-20.6%	-1.1%	-2.4%	i	-6.4%	33.3%[activator]	29.7%
COc1cc2c(cc1OC)CN(C(=O)CCCN1C(=O)c3ccccc3C1=O)CC2	?	-2.1%	i	-1.0%	-1.1%	-0.1%	i	-4.8%	-13.4%	4.1%
CCCCNC(=O)c1ccccc1NC(=O)c1ccccc1N(C)S(C)(=O)=O	1.4%	1.4%	i	-20.9%	-0.7%	-1.1%	i	-4.3%	-16.2%	-10.5%
Cc1ccccc1-n1c(-c2ccncc2)n[nH]c1=S	?	3.0%	?	?	-3.4%	-0.3%	i	-8.4%	-7.5%	-11.2%
CCN(CC)S(=O)(=O)c1ccc2[nH]cc(C(=O)NCCC3=CCCCC3)c(=O)c2c1	?	-1.0%	?	?	2.1%	-0.4%	i	2.0%	13.8%	47.4%
COc1ccccc1-c1noc(CCC(=O)Nc2ccccc2Cl)n1	3.2%	2.3%	?	?	-2.4%	-18.3%	i	-2.5%	-0.5%	-1.6%
O=S(=O)(Nc1ccc2c(c1)oc1ccccc12)N1CCCC1	-4.8%	-0.2%	i	-12.4%	-2.7%	6.0%	i	-1.1%	-13.4%	-5.4%
CCOC(=O)c1ccc(-n2c(=S)sc3c(=O)[nH]c(C)nc32)cc1	?	-3.6%	i	10µM*	-3.7%	-3.2%	i	-1.9%	26.6%	8.0%
O=C(CC1Oc2ccccc2NC1=O)NC1CCCC1 (stereo unspecified)	4.3%	1.2%	.	4.2%	0.3%	-2.7%	.	-0.4%	7.5%	-16.8%
CN(CC(=O)Nc1sccc1C#N)C1CCCCC1	4.2%	-0.9%	i	?	-15.1%	0.1%	i	-13.1%	-1.2%	28.1%
N#CC1=C(N)Oc2cc(N)ccc2C1C1CCCCC1 (stereo unspecified)	?	-1.4%	i	-9.0%	-3.6%	0.3%	i	-3.4%	2.2%	-1.8%
CCCCC(=O)Nc1cc(C)c2c(=O)oc3ccccc3c2n1	?	1.1%	i	5.3%	-1.7%	2.9%	i	1.6%	9.1%	-4.8%
Cc1ccccc1Cn1ccc(NC(=O)CCSc2nc(-c3ccco3)cc(C(F)(F)F)n2)n1	7.4%	-0.2%	i	-23.7%	7.4%	1.2%	i	-2.3%	28.1%	-11.0%
Cc1ccc(-n2c(=O)cc(N3CCN(C(=O)c4ccco4)CC3)[nH]c2=O)cc1	15.6%	0.8%	.	-4.9%	0.1%	1.0%	.	2.0%	.	-18.5%
CCOC(=O)c1c(NC(=O)OC)sc(C(=O)N(CC)CC)c1C	24.1%	-0.3%	.	-10.0%	-0.5%	0.1%	.	-5.8%	-10.4%	-8.2%
COc1ccc(-c2cc3ccccc3n2CC(O)CN2CCN(CCO)CC2)cc1 (stereo unspecified)	-9.1%	-1.2%	.	-4.0%	-8.0%	1.2%	.	-6.3%	-8.7%	-9.5%
CC12C=C(/C=C/C=C/c3ccccc3)C(C)(C1)C(/C=C/c1ccccc1)CC2=O (stereo unspecified)	.	-0.8%[9.22 µM]	.	-22.7%[11.4 µM]	.	.	.	.	-2.2%[11.5 µM]	.
COc1ccc(CNc2ncnc3ccc(-c4ccc(N(C)C)cc4)cc23)c(OC)c1	?	3.7%	i	?	?	0.8%[2.29 µM]	i	-5.0%	-12.3%	2.51µM*
CSc1ccc(C(=S)N2CCN(C)CC2)cc1	12.3%	0.8%	?	-17.6%	-7.3%	-1.6%	i	-2.1%	2.1%	-1.3%
c1ccc(OCc2nn3c(Cn4cnc5ccccc54)nnc3s2)cc1	?	0.7%	i	-21.4%	-7.7%	0.0%	i	-5.2%	-27.7%	-6.4%
COc1ccc(CCNC(=O)CCSc2nc(-c3ccco3)cc(C(F)(F)F)n2)cc1OC	-5.8%	-1.6%	i	?	-1.4%	2.4%	i	-9.2%	?	475.7%
Cc1ccc(S(=O)(=O)N2CCCC2C(=O)NC2CCCCC2)cc1 (stereo unspecified)	-8.5%	-1.2%[57.5 µM]	?	0.7%	-2.6%	1.2%	i	1.3%	?	0.4%
O=c1oc2ccccc2cc1C1=Nn2c(nnc2-c2cccnc2)SC1	11.7%	-2.2%	i	-6.7%	-4.7%	0.2%	i	-2.3%	-18.7%	12.2%
COc1c(F)c(F)c(C(=O)Nc2cccc(Cl)c2N2CCOCC2)c(F)c1F	6.0%	-0.6%	i	3.9%	2.7%	0.3%	i	1.4%	-9.1%	118.6%
CC1Cc2nc(SCC(=O)Nc3nccs3)n(Cc3ccccc3)c(=O)c2S1 (stereo unspecified)	12.6µM*	0.6%	.	-1.9%	-3.8%	0.0%	.	-0.9%	.	107.9%
COc1ccc2oc(C(=O)CCC(=O)O)c(N)c2c1	0.3%	-0.7%	.	4.8%	-2.5%	-0.5%	.	0.7%	.	-20.5%
c1ccc(OCCSc2nnc3sc4ccccc4n23)cc1	28.6%	0.1%[57.5 µM]	i	-9.7%	4.9%	25.1µM*	i	-3.2%	8.0%	13.6%
O=C(O)c1cccc(NS(=O)(=O)c2cccc3cccnc23)c1	-6.5%	1.1%	.	4.2%	-6.7%	-0.2%	.	-4.3%	.	0.1%
O=C(Nc1nnc(COc2ccc(F)cc2)s1)c1cccs1	-3.5%	0.1%[0.369 µM]	i	9.2%	0.5%	-0.3%	i	-2.9%	1.0%	18.9%
COC(=O)c1ccccc1NC(=O)Nc1cccs1	?	-2.2%	i	?	-3.2%	-5.9%	i	1.8%	7.3%	-26.6%
C=C(Cl)COc1ccc2c(CC)cc(=O)oc2c1	.	.	.	-0.7%	.	.	.	.	.	.
COc1cc(CNc2ccccc2SC)ccc1O	?	-3.4%[0.0738 µM]	.	?	-7.9%[11 µM]	-1.8%	.	-4.1%[11.4 µM]	-14.4%	-6.5%[11.4 µM]
Cc1ccc(S(=O)(=O)N2CCCC2C(=O)Nc2nccs2)cc1 (stereo unspecified)	-0.6%	4.1%	.	-9.6%	-1.0%	-0.1%	.	-0.8%	-7.3%	8.7%
COc1ccc(CC(=O)Nc2ccc(OC)c(NC(=O)c3ccco3)c2)cc1	-6.0%	-0.3%	i	-2.9%	-3.7%	0.3%	i	-3.4%	-2.5%	-5.3%

An excerpt. The share of hits here may be higher or lower than overall.
